Bioassay records: PubChem BioAssay, Johns Hopkins Ion Channel Center
KCNQ2 block – KCNQ2 potassium channel inhibitors, primary screen, cell-based, CHO-K1, FluxOR thallium flux, B-score (AID 2156); actives 1.1% (n = 310,000); Potassium voltage-gated channel subfamily KQT member 2 (Rattus norvegicus), O88943; 20 min; active compounds read low; only compounds with negative scores are shown here; some inactives read as strong as hits; B-score at 10 µM;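 active = fluorescence ratio B-score at most minus 3 library SDs, with starting brightness B-score within 2 library SDs, cut at about -5.5 in these data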
Target sequence (O88943 whole entry, looked up): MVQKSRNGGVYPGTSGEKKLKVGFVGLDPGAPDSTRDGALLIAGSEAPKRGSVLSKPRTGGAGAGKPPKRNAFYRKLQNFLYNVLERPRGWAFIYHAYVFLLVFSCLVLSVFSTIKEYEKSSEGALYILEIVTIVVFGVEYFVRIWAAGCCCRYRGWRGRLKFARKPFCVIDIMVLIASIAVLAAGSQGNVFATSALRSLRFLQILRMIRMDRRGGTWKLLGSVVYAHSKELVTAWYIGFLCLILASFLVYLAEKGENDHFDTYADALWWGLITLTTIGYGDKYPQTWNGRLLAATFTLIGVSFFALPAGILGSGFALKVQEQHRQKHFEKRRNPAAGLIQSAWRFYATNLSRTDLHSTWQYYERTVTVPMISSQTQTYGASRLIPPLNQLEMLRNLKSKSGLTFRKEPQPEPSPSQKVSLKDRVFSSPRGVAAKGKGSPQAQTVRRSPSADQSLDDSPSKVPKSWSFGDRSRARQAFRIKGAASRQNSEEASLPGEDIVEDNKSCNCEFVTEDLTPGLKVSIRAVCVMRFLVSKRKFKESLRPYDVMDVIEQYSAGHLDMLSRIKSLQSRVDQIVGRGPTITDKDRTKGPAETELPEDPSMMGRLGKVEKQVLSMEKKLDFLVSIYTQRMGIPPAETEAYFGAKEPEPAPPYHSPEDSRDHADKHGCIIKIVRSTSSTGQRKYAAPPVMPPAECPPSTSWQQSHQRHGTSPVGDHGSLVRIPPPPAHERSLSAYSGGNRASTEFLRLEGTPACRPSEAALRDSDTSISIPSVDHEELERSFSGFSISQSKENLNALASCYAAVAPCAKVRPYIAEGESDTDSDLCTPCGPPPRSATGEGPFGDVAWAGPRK
KCNQ2 block baseline – also measured in KCNQ2 block; calls as there; B-score; measured here: initial fluorescence intensity artifact check;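 brightness before thallium and not channel activity; 0 = typical well and far values either way flag optical interference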
Starred values were filed as active, the others as inactive; i = inactive. Not all compounds are listed; count on the stated rates, not on these rows.

SMILES | KCNQ2 block | KCNQ2 block baseline
O=C(CC(=O)c1ccccc1)Nc1ccccc1 | i | -0.28
CCOc1ccc(CN2CCN(Cc3cc4ccccc4o3)CC2CCO)cc1 (stereo not drawn) | i | -1.9
O=C(Nc1c(-c2ccccc2)nc2ccccn12)c1ccccc1 | i | 0.78
COc1cccc(C2C(C(C)=O)=C(O)C(=O)N2CCc2c[nH]c3ccccc23)c1 (stereo not drawn) | i | -0.77
O=C(CNCc1cccs1)Nc1cc(S(=O)(=O)N2CCCC2)ccc1Cl | i | 1.8
COc1ccc(NC(=O)CCN2CCCC(C)C2)cc1 (stereo not drawn) | i | 0.7
Cc1ccc2c(Cl)c(C(=O)NCC(c3ccco3)N3CCCC3)sc2c1 (stereo not drawn) | i | 0.02
CCCCCCc1ccc(N2C[C@H](CCCCC)[C@@H](CC(=O)NCc3ccccc3)C2=O)cc1 | i | -1.7
CCOC(=O)C1CCN(S(=O)(=O)c2c[nH]c(=O)[nH]c2=O)CC1 | i | 2.2
CC(C)[C@H](NC(=O)c1ccco1)C(=O)N(C)Cc1c(F)cccc1Cl | i | -0.08
C#CC(=O)N(c1ccc(OC)c(OC)c1)C(C(=O)NC1CCCC1)c1cccs1 (stereo not drawn) | i | 0.18
Cc1ccc(Cl)cc1NC(=O)NCc1cccnc1 | i | 1.4
CCOCC(=O)Nc1cc(Cl)c(OC)cc1OC | i | -0.02
O=C(Cn1c(-c2cncs2)nc2ccccc21)NC1CCCC1 | i | -0.52
Cc1cc(Br)ccc1NC(=O)C1CSC2(C)CCC(=O)N12 (stereo not drawn) | i | 1.1
CC(C)C[C@@H](C(=O)NCC1CCCO1)N1C(=O)N2CCc3c([nH]c4ccccc34)[C@@]2(C)C1=O (stereo partly drawn) | i | 1.2
Cc1ccc(-c2nn(-c3cc(Cl)ccc3[N+](=O)[O-])c(=O)c3ccccc23)cc1C | i | 1.2
COCCNC(=O)CSc1nc2ccccc2c(=O)n1-c1cccc(OC)c1 | i | 1.8
COc1ccccc1NC(=O)Cc1csc(NC(=S)Nc2ccccc2)n1 | i | -0.59
NC(=O)c1ncc(C(F)(F)F)cc1Oc1ccc(F)cc1 | i | 0.2
CCn1c(=O)c2ccccc2n(CC(=O)N2CCCc3ccccc32)c1=O | i | -1.2
CC(NC(=O)c1ccccc1)c1ccc(F)cc1 (stereo not drawn) | i | 0.28
COc1ccc(Cl)cc1NC(=O)COc1cccc(-n2cnnn2)c1 | i | 0.01
CCCCCOC(=O)Cc1c(O)c2ccccc2n(C)c1=O | i | 1
CCCCc1ccc(-c2nc(NC(=O)C3C4CCC(O4)C3C(=O)O)sc2C)cc1 (stereo not drawn) | i | 2.2
O=C1[C@H](CC[C@H](O)c2ccc(F)cc2)[C@@H](c2ccc(O)cc2)N1c1ccc(F)cc1 | i | -1.4
Cc1c(C)c(C)c(S(=O)(=O)N2CCSCC2)c(C)c1C | i | -0.19
CC(C)c1ccc(NC(=O)CCNS(=O)(=O)c2cc(Br)cnc2N)cc1 | i | 0.11
Cn1c(=O)n(CCc2ccccc2)c(=O)c2c1nc1n2CCCN1Cc1ccccc1 | i | 1.1
O=C(NNc1ccccc1)/C(=C\c1cccnc1)NC(=O)c1ccccc1 | i | -1.2
Cc1nnc(-c2cnn(C)c2N)n1CCCN1CCOCC1 | i | 0.2
Cc1ccc(C(=O)N2CCC(C(=O)NC3CCCCCC3)CC2)cc1 | i | -0.67
Cc1ccc(S(=O)(=O)NCCC(=O)Nc2ccc(Cl)c(Cl)c2)cc1 | i | -0.01
CN(C1=C(NC(=O)c2ccc(Cl)cc2)C(=O)c2ccccc2C1=O)c1ccccc1 | -6.3* | -0.23*
CCN(c1cccc(C)c1)S(=O)(=O)c1cccc2nsnc12 | i | -0.49
CN(Cc1ccccc1)CC1CCCN(CCc2ccccc2F)C1 (stereo not drawn) | i | -2.3
CCOc1ccc(-n2ccn(CC(=O)NCCc3ccccc3)c(=O)c2=O)cc1 | i | 1.3
Cc1ccc(Sc2ncccc2C(=O)N(C)Cc2cccs2)c(C)c1 | i | -0.76
CCOc1ccc(/C=C/C(=O)c2ccccc2)cc1 | i | -1.3
COc1cc(Cl)c(C)cc1NC(=O)CSc1nnc(-c2ccco2)n1CC(C)C | i | 0.92
CC(=O)N/C(=C\c1ccccc1)C(=O)OCC(=O)c1ccc(F)cc1 | i | 1.5
CC(=O)c1ccc(S(=O)(=O)Nc2cccc(S(=O)(=O)NC3=NCCC3)c2)cc1 | i | 0.45
CCN(CC(=O)Nc1c(F)cccc1F)C(=O)CCNS(=O)(=O)c1ccc(C)c(C)c1 | i | 1.8
CC(C)n1c(/N=C/c2c[nH]c3ccccc23)nc2ccccc21 | i | 2.4
COc1ccc(NC2=NCC(=O)N2c2ccccc2)c(OC)c1 | i | 1.1
CCCCOP(=O)(c1ccc(N(C)C)cc1)C(O)c1c(Cl)cccc1Cl (stereo not drawn) | i | -0.98
O=C(c1ccco1)N1N=C(c2cccs2)CC1c1cc([N+](=O)[O-])ccc1O (stereo not drawn) | i | -0.32
COC1=CCC2([N+](=O)[O-])CN(CCO)CC1([N+](=O)[O-])C2 (stereo not drawn) | i | -1

Reformatted with two lines to a compound: part of the list above.
Every second line gives: KCNQ2 block | KCNQ2 block baseline
CC(=O)c1ccc(S(=O)(=O)Nc2cccc(S(=O)(=O)NC3=NCCC3)c2)cc1
→ i | 0.45
CCN(CC(=O)Nc1c(F)cccc1F)C(=O)CCNS(=O)(=O)c1ccc(C)c(C)c1
→ i | 1.8
CC(C)n1c(/N=C/c2c[nH]c3ccccc23)nc2ccccc21
→ i | 2.4
COc1ccc(NC2=NCC(=O)N2c2ccccc2)c(OC)c1
→ i | 1.1
CCCCOP(=O)(c1ccc(N(C)C)cc1)C(O)c1c(Cl)cccc1Cl (stereo not drawn)
→ i | -0.98
O=C(c1ccco1)N1N=C(c2cccs2)CC1c1cc([N+](=O)[O-])ccc1O (stereo not drawn)
→ i | -0.32
COC1=CCC2([N+](=O)[O-])CN(CCO)CC1([N+](=O)[O-])C2 (stereo not drawn)
→ i | -1

Going on with the list:
SMILES | KCNQ2 block | KCNQ2 block baseline
COc1ccccc1CN=Cc1[nH]c2ccc(Br)c(Cl)c2c1O | i | 0.88
CCc1ccccc1N(CC(=O)NCc1ccc(OC)cc1)C(=O)CCC(=O)Nc1ccccn1 | i | 0.24
COc1ccc(NS(=O)(=O)c2ccc(OC)c(N(C)S(=O)(=O)c3ccc(Cl)cc3)c2)cc1 | i | -0.71
CSc1ccc(C(=O)NC2CCSc3ccccc32)cc1 (stereo not drawn) | i | -0.63
CCOc1cc(N2CCOCC2)c(OCC)cc1NC(=O)c1cc(-c2ccco2)nc2ccccc12 | i | 1.4
COc1ccc(/C=N/NC(=O)c2ccc(O)cc2O)cc1CSc1ccccn1 | i | -0.5
CC1Cc2ccccc2N1C(=O)COC(=O)C1(c2ccccc2F)CCCC1 (stereo not drawn) | i | -1.4
CN1CCc2c(OCC(=O)N3N=C(c4cccs4)CC3c3ccc(F)cc3)cccc2C1=O (stereo not drawn) | i | 0.39
COc1cc(CNc2ccc3c(c2)CCC3)cc(OC)c1O | i | 0.27
CC(=O)CSc1nc2ccc(Nc3nc(N4CCOCC4)nc(N4CCOCC4)n3)cc2s1 | i | 0.96
CC(=O)NC(Cc1ccccc1C)C(=O)NC1CCN(C(=O)NCc2ccccc2)CC1 (stereo not drawn) | i | -0.74
CCCc1cc(=O)oc2c(C)c(OCC(=O)N3CCC(C(N)=O)CC3)ccc12 | i | 0.94
CC(=O)N1N=C(c2cccc(NS(=O)(=O)c3ccc(C)cc3)c2)CC1c1ccco1 (stereo not drawn) | i | -1.4
O=C(Cn1c(NCCO)nc2ccccc21)NCCc1ccccc1 | i | -0.76
COc1ccc(CCN2CCCC(CN(C)C(=O)c3ccoc3C)C2)cc1 (stereo not drawn) | i | 1.4
C=CCOc1ccc2ccccc2c1CNCCCN1CCOCC1 | i | -0.02
CS(=O)(=O)N(CC(=O)NCc1ccccc1Cl)Cc1ccccc1 | i | -1.2
CCOC(=O)c1ccc(NC(=O)C2(c3ccc(OC)cc3)CCOCC2)cc1 | i | -0.04
COc1ccccc1-c1cnn2c(NCCc3ccccc3)cc(C)nc12 | -7.1* | -0.27*
CC(=O)N1Cc2[nH]c3ccccc3c2CC1C(=O)O (stereo not drawn) | i | -0.61
O=C(CCCc1nc2ccccc2s1)Nc1nccs1 | i | 2.6
CCOC(=O)c1nnn(CC(=O)N2N=C(c3ccc(Cl)cc3)CC2c2ccc(OC)cc2)c1C(=O)OCC (stereo not drawn) | i | 1.6
COc1ccc(N2CCOCC2)c(NC(=O)c2ccc3c(c2)OCO3)c1 | i | 0.78
CCc1nc(CN2CCN(Cc3ccc(F)c(F)c3)C(CCO)C2)c(C)[nH]1 (stereo not drawn) | i | -0.55
COc1ccc(C(=O)C2CCCN(Cc3nc4ccccc4nc3C)C2)cc1OC (stereo not drawn) | i | -1.5
O=C(NCCc1ccncc1)Nc1ccc(Cl)cc1 | i | -0.51
Cc1ccc(NC(=O)CNC(=O)Cc2cccc3ccccc23)nc1 | i | -1.7
CC(C)(C)c1cc(C(=O)NNS(=O)(=O)c2ccccc2)n[nH]1 | i | 0.5
Fc1ccc(-n2cc(-c3ccccc3)c3c(N4CCOCC4)ncnc32)cc1 | i | 0.21
Cc1ccc(S(=O)(=O)N2CCCCC2)cc1NC(=O)COC(=O)Cc1cccc2ccccc12 | i | 3.3
CC(=O)Nc1nc(S(=O)(=O)c2ccc(C)cc2)c(Cl)s1 | i | 1.3
O=C(O)c1ccc2c(c1)NC(=O)C(N1CCCC1)S2 (stereo not drawn) | i | 0.6
CCN1CCN(Cc2ccc(NC(=O)c3cc(NC(=O)c4cnn(-c5ccccc5)c4N)cc(OC)c3)cc2C(F)(F)F)CC1 | i | -0.02
CCN1CCN(C(=O)CSc2nc3c(c(=O)n(C)c(=O)n3C)n2C)CC1 | i | -1.3
COc1ccc(-c2sc(NC(C)=O)nc2-c2ccccc2)cc1 | i | -1.9
Cc1onc(-c2c(F)cccc2Cl)c1C(=O)NCc1ccc(F)cc1 | i | -2
CCOc1ccc(NC(=O)Cn2nnc(-c3ccccc3NC(=O)c3cccs3)n2)cc1 | i | -0.5
CC(=O)Nc1ccc(NC(=O)C(C)Oc2ccccc2F)cc1 (stereo not drawn) | i | -0.46
O/N=C/C1=C(Cl)c2ccccc2CC1 | i | 0.11
COc1cccc(N2CCN(Cc3nc4scc(-c5ccccc5)c4c(=O)[nH]3)CC2)c1 | i | -0.6
CCn1c(=O)c(C(=O)NCCN2CCCCC2)c(O)c2ccccc21 | i | 0.48
Cc1ccc(CSc2nnc(NC(=O)Cn3cnc4ccccc4c3=O)s2)cc1 | i | -0.02
O=C(Nc1ccc(F)c(F)c1)c1cnc(-c2ccccc2)nc1-c1ccccc1 | -5.6* | -1.1*
O=C(COc1ccccc1Cl)NCc1ccncc1 | i | -0.08
Cc1ccc(CCN2CC(C(=O)NC3CCCCC3)CC2=O)cc1 (stereo not drawn) | i | 0.13
Cc1nn(Cc2ccccc2)c(C)c1NC(=O)CSc1n[nH]c(C)c1[N+](=O)[O-] | i | 0.01
c1ccc2[nH]c(CN3CCOCC3)nc2c1 | i | 2.3
O=c1c2ccccc2nc(SCc2cccc(F)c2)n1C1CCCC1 | i | -0.02

Single values from the entries so far:
KCNQ2 block baseline, O=C(CC(=O)c1ccccc1)Nc1ccccc1 is entered as -0.28
KCNQ2 block baseline, CCCCCOC(=O)Cc1c(O)c2ccccc2n(C)c1=O is entered as 1
KCNQ2 block baseline, CCOC(=O)c1nnn(CC(=O)N2N=C(c3ccc(Cl)cc3)CC2c2ccc(OC)cc2)c1C(=O)OCC (stereo not drawn) is entered as 1.6
KCNQ2 block baseline, CS(=O)(=O)N(CC(=O)NCc1ccccc1Cl)Cc1ccccc1 is entered as -1.2
KCNQ2 block baseline, Cn1c(=O)n(CCc2ccccc2)c(=O)c2c1nc1n2CCCN1Cc1ccccc1 is entered as 1.1
KCNQ2 block baseline, CC(=O)N1Cc2[nH]c3ccccc3c2CC1C(=O)O (stereo not drawn) is entered as -0.61

Continuation.
SMILES | KCNQ2 block | KCNQ2 block baseline
COc1ccc(N2CCN(CC(=O)Nc3nc4c(s3)CC(C)CC4)CC2)cc1 (stereo not drawn) | i | -0.52
CS(=O)(=O)NCCSCc1ccco1 | i | -1.2
CC12CCC(C(=O)NCc3ccccc3Cl)(C(Br)C1=O)C2(C)C (stereo not drawn) | i | 1.9
COCCOC(=O)C1=C(C)Nc2ncnn2C1c1ccccc1 (stereo not drawn) | i | 1.2
O=C1OC(Nc2nc3ccccc3s2)c2ccccc21 (stereo not drawn) | i | 0.1
COC(=O)C1=C(C)N(CC2CCCO2)C(=O)/C1=C\c1ccc(O)cc1 (stereo not drawn) | i | 3.4
COC(=O)c1sc(NC(=O)c2cc(C)on2)nc1C | i | -1
COc1ccc(/C=N/NC(=O)c2cc[n+]([O-])cc2)cc1O | i | -0.76
Cn1c(NC(=O)c2ccc(Br)o2)cc(=O)n(C)c1=O | i | -0.07
CCCCOn1c(C)c(C(=O)OCC)c2c3nonc3ccc21 | i | 0.66
CCOc1ccccc1/C=N/N1CCN(Cc2ccccc2)CC1 | i | -0.3
CCNc1nc(NCC)nc(OCCOC(=O)COc2ccc(Cl)cc2Cl)n1 | i | 1.3
COc1cc(C(=O)Oc2cc(C)[nH]c(=O)c2[N+](=O)[O-])cc(OC)c1OC | i | 0.86
CC(C)(C)OC(=O)N1CCN(CCNC(=O)c2ccccc2)CC1 | i | 0.7
Cc1ccc2nc3c(cc(C(N)=S)c(=N)n3CCCOC(C)C)c(=O)n2c1 | i | -1.7
CC(=O)c1cc(-c2ccccc2)n(CCC(=O)NC2CCC(C)CC2)c1C (stereo not drawn) | i | -0.62
CN(c1cccc(Cl)c1)S(=O)(=O)c1cccc(C(=O)NC2=NCCS2)c1 | i | -0.24
